# Rango dissoc inh – prevents RanGTP from dissociating the Rango-importin beta complex. Biochemical FRET Rango-importin beta, RanGTP-induced dissociation. Potency, µM (top dose mostly 46.1 µM), for inactives: at the top dose activity change, negative = inhibition. 0.071% of 340,000 active; active means falling FRET ratio curve, often poorly fitted, with flat reads before Ran was added; inconclusive means other falling curves, or compound fluorescence or quenching; inactive means flat or rising ratio curve;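 further: potency means the concentration at half of the fitted maximal effect; % of control where 0% means no effect; nearly all actives have a fitted effect of over 45% in size; -100% = wells without RanGTP and RCC1; the record marks most hits as doubtful in a second field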
#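 Compounds preincubate 5 min with complex of recombinant Rango and importin beta in PBS with 1 mM DTT. Ran (0.6 uM) loaded with 2 mM GTP plus 0.2 uM RCC1 starts dissociation; FRET is recorded 45 min later.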
# GLA inh pH 4.5 – alpha-galactosidase A (human) inhibition, pH 4.5 | purified enzyme, 4-MU-alpha-Gal fluorescence, pH 4.5 | activity change, negative = inhibition, % at 105 µM | 230,000 tested, under 10 active | P06280; inconclusive = small, poorly fitted or top-dose-only inhibition, or a rising curve; inactive = flat fitted curve, though single readings scatter; no compound was filed as active;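 further: 0% = full activity with enzyme and -100% = basal without enzyme; dose as in the result columns while the protocol names 77 µM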
# Target sequence (P06280 whole entry, looked up): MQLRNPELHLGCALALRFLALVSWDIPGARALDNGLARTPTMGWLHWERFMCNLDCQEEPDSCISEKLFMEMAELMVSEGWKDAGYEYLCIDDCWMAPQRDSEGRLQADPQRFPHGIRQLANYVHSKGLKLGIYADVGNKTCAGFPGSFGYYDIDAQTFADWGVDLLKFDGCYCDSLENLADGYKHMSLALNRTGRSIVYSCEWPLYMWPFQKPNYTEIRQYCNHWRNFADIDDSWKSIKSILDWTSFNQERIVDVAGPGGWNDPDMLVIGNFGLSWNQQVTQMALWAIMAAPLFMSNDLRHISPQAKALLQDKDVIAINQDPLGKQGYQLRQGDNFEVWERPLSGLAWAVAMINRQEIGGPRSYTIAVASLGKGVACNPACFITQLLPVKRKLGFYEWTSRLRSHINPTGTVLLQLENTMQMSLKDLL
# miR-21 reporter – raises the signal of a miR-21 reporter; HeLa miR-21 FLuc reporter, luciferase, 48 h; Potency, µM (titrated, usually from 38.3 µM), for the others: at the top dose reporter change, positive = more light; 340,000 tested, under 10 active; active = well fitted rising curve with a large enough effect; inconclusive = small, poorly fitted or top-dose-only effect; inactive = no such curve, though single readings can be large or run the other way;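 further: % of control where 0% means no effect; miR-21 action dims this reporter so a rising signal means less miR-21 action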
#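 Luminescence from a firefly luciferase reporter carrying a miR-21 binding site downstream, stably expressed under a CMV promoter in HeLa cells that make miR-21 endogenously, reports miRNA modulation after 48 h compound exposure up to approximately 40uM final.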
# Rango-impB inh – inhibitors of Rango-importin beta complex formation. Q14974. Rango CFP/YFP FRET sensor + importin beta, 45 min. Potency, µM (top dose mostly 92.2 µM), without a hit: at the highest dose inhibition of complex formation. 0.031% of 340,000 active. AID 540263; active = rising FRET ratio curve, often small or poorly fitted; inconclusive = mostly compound fluorescence or quenching in the first reads; inactive = flat curves in all reads;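 further: potency means the concentration at half of the fitted maximal effect; 0% = DMSO wells and 100% = buffer wells lacking importin beta; nearly all actives have a fitted effect of over 15% in size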
#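 Inhibition scored from the CFP 486 nm/YFP 530 nm FRET ratio 45 min after adding 0.125 microM importin beta to 50 nM Rango biosensor preincubated 5 min with compound (room temperature, PBS with DTT, Tween-20, BSA). No-importin wells as positive control.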
# * = called active by the depositor; u = inconclusive; x = not tested or not shown; & = joins results of further samples. Some of the compounds tested; count on the stated rates, not on these rows.
SMILES,Rango dissoc inh,GLA inh pH 4.5,miR-21 reporter,Rango-impB inh
c1ccc(OCc2nc3c4c(ncn3n2)-c2ccccc2CC42CCCC2)cc1,1%,-2,-3%,3.3%
COc1ccnc2c1c(=O)n(Cc1c(F)cccc1Cl)c(=O)n2C,-23%,x,0%,-0.8%
COc1cc2c(cc1C=O)OC(C)C2 (configuration not stated),-15%,-2,3%,u
CON/C=C(\C=Nc1ccc(F)cc1)c1ncc(C(F)(F)F)cc1Cl,-12%,-3,-1%,-0.2%
COc1ccc(/C=N/NC(=O)C(=O)Nc2ccccn2)cc1OC,14%,5,-2%,-1.5%
c1cnn(-c2nc(N3CCOCC3)nc(N3CCOCC3)n2)c1,-6%,7,17%,-0.1%
O=C(NCCCO)/C(=C/c1ccco1)NC(=O)c1ccc(Br)o1,-7%,-20,-3%,-2.0%
O=C(CNC(=O)C1CCCCC1)Nc1cc(Cl)cc(Cl)c1,0%,-4,-3%,0.7%
Nc1c([N+](=O)[O-])cnnc1-c1ccccc1,10%,-26,-1%,-2.0%
Cc1ccc(-c2ccc(SCC(=O)NCC3CCCO3)nn2)cc1 (configuration not stated),-6%,0,-18%,-3.1%
O=C(CSc1nnc(NC(=O)C2CCC2)s1)Nc1ccc(N2CCOCC2)cc1,1%,0,-2%,0.3%
Cc1oc(CC(C)C)cc1C(=O)NCCCC(=O)O,1%,3,5%,2.0%
Cc1ccc(C(=O)Nc2ncc3c(Cl)cccc3n2)cc1,9%,-2,u,-0.5%
COc1ccc(Nc2nc(N3CCN(S(C)(=O)=O)CC3)nc3ccccc23)c(OC)c1,-6%,x,-6%,-1.3%
COc1ccc(OC)c(NC(=O)CN2C(=O)C(C)N(c3ccc(C)cc3)C2=O)c1 (configuration not stated),13%,x,x,-0.6%
O=C(NCc1ccccn1)c1cnc2sccn2c1=O,-12%,3,-2%,3.5%
CC(NC(=O)c1ccc(NS(C)(=O)=O)cc1)c1ccccc1 (configuration not stated),1%,6,-6%,0.1%
COc1ccc(/C=N/NC(=O)c2ccc3c(c2)OCCO3)cc1[N+](=O)[O-],2%,0,-43%,0.1%
Cc1ccc(C(C(=O)NCc2ccco2)N(C(=O)CNC(=O)c2cccs2)c2c(C)cc(C)cc2C)cc1 (configuration not stated),17%,8,-2%,-1.8%
O=C(NCCCN1CCCC1=O)c1ccc2c(c1)ncn2C1CCCCC1,-8%,10,-22%,0.5%
Cn1cnnc1SCC(=O)NC(=O)NC1CCCC1,13%,6,0%,-4.1%
O=C(NNS(=O)(=O)c1ccc(F)c(Cl)c1)c1cccc(S(=O)(=O)N2CCOCC2)c1,-1%,0,-8%,-4.7%
COc1ccc(C(=O)OCC(=O)NC(=O)NC2CCCC2)c(OC)c1,-1%,1,-6%,-0.7%
Cc1cccc(N2C(N)=C(C#N)C(C#N)(C#N)C2c2ccccc2)c1 (configuration not stated),21%,5,0%,0.1%
CS(=O)(=O)N1CCn2c1nc1ccccc12,-11%,-1,-4%,-3.5%

# New compounds follow.
SMILES,Rango dissoc inh,GLA inh pH 4.5,miR-21 reporter,Rango-impB inh
Nc1nnc(SCc2cc3c(cc2Cl)OCO3)s1,-1%,5,-29%,-0.7%
CN(C)CCOC(=O)Cc1ccc(Cl)cc1,8%,3,-6%,-0.1%
CCC(C)(C)C1CCc2c(sc(NC(=O)c3ccccc3C(=O)O)c2C#N)C1 (configuration not stated),-11%,-3,16%,-2.2%
O=C(NCc1ccccc1)c1ccc(-c2ccccc2C(F)(F)F)o1,2%,-15&-18,-34%,-1.0%
Cc1ccc2[nH]c(=O)c(CN(CC3CCCO3)C(=O)c3ccco3)cc2c1 (configuration not stated),x,4,-6%,x
Cc1c(NC(=O)Nc2cc(F)c(F)cc2Cl)c(=O)n(-c2ccccc2)n1C,5%,x,x,-0.5%
CCOc1ccc(NC(=O)CSc2nnc(NC(=O)C3CC3)s2)cc1,-13%,x,-1%,-2.3%
CN1CCN(NC(=O)c2cccc(S(=O)(=O)N3CCCCCC3)c2)CC1,8%,2,-4%,-0.6%
Cn1cc(C=C2C(=O)OC3(CCCCC3)OC2=O)c2ccccc21,-18%,-1,-9%,u
COc1ccc(N(C(=O)/C=C/c2ccc(OC)c(OC)c2)C2=CC3CCC(C2)N3C)cc1 (configuration not stated),-7%,-8,-23%,1.4%
CCC1Oc2ccccc2N(CC(=O)NCCCN2CCCC2)C1=O (configuration not stated),12%,x,0%,3.3%
CCN(CC)c1ccc(/C=N/OC(C)C(=O)Nc2ccc(C)cc2)cc1 (configuration not stated),-11%,0,-16%,1.6%
Cc1cc(C(=O)CSc2nnnn2-c2ccccc2)c(C)n1-c1ccc2c(c1)OCO2,2%,1,30%,1.7%
Cn1cccc1Cc1nnc(SCC(=O)NCC2CCCO2)n1CCc1ccccc1 (configuration not stated),1%,5,-6%,-4.3%
COc1ccc(NS(=O)(=O)c2cc(C)ccc2C)cc1,-2%,1,23%,0.9%
Cc1ccc(C)n1CCN1CCN(S(=O)(=O)c2ccc(F)cc2F)CC1,-2%,-5,-3%,-0.9%
COc1ccccc1NC(=O)c1ccc(Cl)c(S(=O)(=O)NCc2ccco2)c1,-18%,x,x,-1.4%
Cc1ccc2[nH]c(=O)c(CN(CCCN3CCOCC3)C(=O)Nc3cccc(Cl)c3)cc2c1,11%,-15,0%,1.8%
COc1ccccc1C(=O)N(Cc1ccccc1)c1ccc(C)cc1,-1%,x,10%,0.1%
CCOc1ccc(CN(C)C(=O)CN2C(=O)NC3(CCCc4ccccc43)C2=O)cc1 (configuration not stated),-9%,x,x,-3.1%
COc1cc(/C=N/NC(=O)c2ccc(F)cc2)ccc1OC(=O)c1ccco1,0%,-18,-35%,-2.3%
O=C(NCc1ccccc1)N1CCC(CO)(Cc2cccc(F)c2)CC1,6%,0,3%,-0.1%
CCOc1ccc(N2CC(C(=O)NCC(=O)Nc3ccc(F)c(F)c3F)CC2=O)cc1 (configuration not stated),1%,x,x,-2.4%
CCC(C)(C(=O)NC1CCCC1)N(C(=O)CC1NC(=O)NC1=O)c1c(C)n(C)n(-c2ccccc2)c1=O (configuration not stated),3%,0,-1%,u
O=C(c1ccc(F)cc1F)N1CCC(N2CCC(C(=O)N3CCOCC3)CC2)CC1,-18%,x,-3%,-5.5%

# More entries follow:
SMILES,Rango dissoc inh,GLA inh pH 4.5,miR-21 reporter,Rango-impB inh
Cc1c(Cl)c([N+](=O)[O-])nn1CCCC(=O)Nc1cccc(Cl)c1Cl,5%,4,-12%,1.8%
N#Cc1ccc(C(=O)OCC(=O)Nc2cccc(S(=O)(=O)N3CCCCC3)c2)cc1,-15%,x,x,-2.6%
CCn1cc(C(=O)NCC2CCCO2)c(=O)c2cc(S(=O)(=O)N(C)C)ccc21 (configuration not stated),17%,3,-10%,2.8%
COc1ccc(C(=O)N2CCC(n3nccc3NC(=O)C3CC3)CC2)cc1F,-6%,x,1%,-2.7%
COCc1cc(C)nc(OCC(=O)N/N=C/c2ccc(O)cc2)c1C#N,9%,2,-19%,-1.0%
CCOc1ccc(OCCCCn2ccnc2)cc1,-4%,-5,-17%,-2.4%
Cc1cc(C(=O)CSc2nncs2)c(C)n1-c1c(C)n(C)n(-c2ccccc2)c1=O,9%,-1,-2%,1.2%
COc1ccc(C(=O)CSc2nnc(-c3ccc(C)cc3)o2)cc1,2%,-6,-2%,1.2%
N#CCCN(Cc1ccccc1)C(=O)c1nccnc1C(=O)O,-5%,x,-2%,2.4%
Cc1cccc(Cc2ccc(Cl)nn2)c1,-9%,2,-1%,-1.3%
COc1ccc(CCNC(=O)Cn2ccc3cc(S(=O)(=O)N4CCCC4)ccc32)cc1OC,8%,x,0%,3.5%
C=CCNc1nc(-c2ccc(O)c(C(N)=O)c2)cs1,11%,-3,-34%,0.5%
Cn1cccc1/C=N/n1c(-c2ccco2)n[nH]c1=S,-4%,3,-2%,-0.7%
Cc1cccc(C)c1NC(=O)CNC(=O)c1ccccc1,-15%,x,-4%,-1.7%
CCc1nc2ccccc2c(C(=O)OCCN2C(=O)c3ccccc3C2=O)c1C,0%,9,-2%,3.9%
CSc1cnc2c(=O)n(C)c(=O)[nH]c2n1,-9%,u,-3%,-5.4%
COc1cc(C)c(Cl)cc1S(=O)(=O)n1cnc2ccccc21,-2%,0,-7%,2.1%
COc1ccc(C2CC(c3ccc(OC)cc3)n3nc(NC(=O)c4cccs4)nc3N2)cc1 (configuration not stated),-15%,-6,-3%,-0.1%
Cc1cccn2c(=O)c3cc(C(=O)NCCCN4CCOCC4)n(C)c3nc12,x,7,-2%,x
Brc1ccc(-c2noc(-c3ccccc3)n2)o1,5%,-1,-48%&-30%,-0.4%
c1cnc(Nc2nc(-c3ccc4ccccc4c3)cs2)nc1,4%,-8,-49%,6.3%
COc1cccc(CNC(=O)C2=C(C)C(=O)OC23CCC(C)CC3)c1 (configuration not stated),0%,-4,-3%,-3.4%
O=C(CSc1nc2ccccc2s1)N1CCCCC1,0%,6,-54%,-2.5%
O=C(c1cccnc1)N1CCN(Cc2cccc(F)c2)CC1,-13%,1,0%,-0.9%
Cc1ccc(SCC(=O)Nc2ccc(N3CCOCC3)cc2)cc1C,6%,x,x,0.4%

# Among those listed so far, these contain an NH in an aromatic ring.
SMILES,Rango dissoc inh,GLA inh pH 4.5,miR-21 reporter,Rango-impB inh
Cc1ccc2[nH]c(=O)c(CN(CC3CCCO3)C(=O)c3ccco3)cc2c1 (configuration not stated),x,4,-6%,x
Cc1ccc2[nH]c(=O)c(CN(CCCN3CCOCC3)C(=O)Nc3cccc(Cl)c3)cc2c1,11%,-15,0%,1.8%
Cn1cccc1/C=N/n1c(-c2ccco2)n[nH]c1=S,-4%,3,-2%,-0.7%
CSc1cnc2c(=O)n(C)c(=O)[nH]c2n1,-9%,u,-3%,-5.4%

# More results
SMILES,Rango dissoc inh,GLA inh pH 4.5,miR-21 reporter,Rango-impB inh
CC1CCN(C(=O)CCc2nnc(-c3ccccc3)o2)CC1,-13%,2,-53%,-1.3%
O=C(/C=C/c1cc([N+](=O)[O-])ccc1OC(F)F)Nc1cccc2ccccc12,1%,0,-2%,-0.5%
O=C(CSc1nnc(-c2ccc(Cl)cc2)o1)NNC(=O)c1ccncc1,-10%,x,x,-1.0%
CCN(CC)c1ccc(/C=N/NC(=O)CN2CCCc3ccccc32)cc1,5%,-8,-8%,1.4%
COc1ccccc1NC(=O)CN(C)S(=O)(=O)c1ccc(F)cc1,20%,4,-7%,1.1%
CCn1c(=O)c2sccc2n(Cc2cc(C(=O)OC)ccc2OC)c1=O,1%,x,-5%,0.1%
O=C(O)c1cnnc2ccccc12,28%,x,x,0.1%
CCN(C(=O)c1cc(S(=O)(=O)N2CCCC2)ccc1C)C1CCS(=O)(=O)C1 (configuration not stated),-2%,x,x,5.5%
O=C1C=C(NNC(=O)c2ccncc2)CC(c2ccccc2)C1 (configuration not stated),u,-4,-2%,u
O=C(c1ccc(N2CCCC2)c([N+](=O)[O-])c1)N1CCN(c2ccccn2)CC1,0%,-2,5%,-0.1%
O=C(c1ccc(Cl)c(Cl)c1)N1CCC(=O)N(C(COCc2ccc(Cl)cc2)Cc2ccccc2)CC1 (configuration not stated),14%,-10,2%,0.6%
CCN(CC)c1c([N+](=O)[O-])c(=O)oc2ccccc12,4%,-5,-2%,1.6%
CC(=O)Nc1ccc(S(=O)(=O)N2CCC(NC(=O)c3ccccc3)CC2)cc1,-17%,x,1%,2.2%
Cc1nc2nc(-c3ccccc3)[nH]n2c(=O)c1Cc1ccccc1,0%,-1,-16%,4.4%
O=C(NC(Cc1ccccc1)C(=O)O)/C(=C/c1ccccc1)NC(=O)c1cccc(Br)c1 (configuration not stated),-9%,-5,-2%,-5.1%
Cc1sc2ncnc(N3CCOCC3)c2c1C,-8%,-5,-18%,-0.6%
Cc1cc(C(=O)CSc2nnnn2-c2ccc(O)cc2)c(C)n1C,-13%,5,-38%,0.4%

# Fetched by compound from the entries so far (4):
SMILES,Rango dissoc inh,GLA inh pH 4.5,miR-21 reporter,Rango-impB inh
COc1cc(/C=N/NC(=O)c2ccc(F)cc2)ccc1OC(=O)c1ccco1,0%,-18,-35%,-2.3%
N#CCCN(Cc1ccccc1)C(=O)c1nccnc1C(=O)O,-5%,x,-2%,2.4%
Brc1ccc(-c2noc(-c3ccccc3)n2)o1,5%,-1,-48%&-30%,-0.4%
c1cnn(-c2nc(N3CCOCC3)nc(N3CCOCC3)n2)c1,-6%,7,17%,-0.1%
